Screening data from PubChem BioAssay.
NPYLR7 ag = mosquito NPYLR7 agonism. HEK293T NPYLR7/Galpha15, GCaMP6s calcium fluorescence. activation, % at 10 µM. 270,000 compounds, 0.15% hits. AID 1259423; in the data active = activation above about 40%;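 note: 0% = vehicle and 100% = reference agonist at the receptor; some compounds past the cut are filed as inactive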
NPYLR7 ag max-min = also measured in NPYLR7 ag; calls as there; activation, %; measured here: Max-Min RFU normalised activation; some inactives read as strong as hits;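 span of the calcium signal over five minutes; 0% = vehicle and 100% = native peptide agonist; compound fluorescence can raise it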
Active calls of the source: *; & = joins results of further samples.

SMILES	NPYLR7 ag	NPYLR7 ag max-min
COC(=O)COC1C[C@](OCc2cccc(C(F)(F)F)c2)(C(=O)NC(C)C)C[C@H]2OC(C)(C)O[C@@H]12 (stereo not given in full)	0	10
Cc1ccc(C)c2sc(N(CCN(C)C)C(=O)CCCS(=O)(=O)c3ccc(F)cc3)nc12	6	5
NC(=O)c1ccc(OCc2nnc(-c3ccccc3C(F)(F)F)o2)cc1	4	2
CS(=O)(=O)c1ccc(-c2ccc3sc(N)nc3c2)cc1	6	2
Cc1ccc(NC(=O)C2CCCN2C(=O)C23CC4CC(CC(C4)C2)C3)cc1 (stereo not given)	-2	-4
COc1ccc(/C=C2\C=C(c3ccccc3)N(c3ccccc3O)C2=O)cc1Br	-1	3
Cc1nonc1OCCn1cnc(-c2ccccc2)c1-c1ccc(CO)o1	-5	-7
COc1cc(=O)n(-c2ccccc2)nc1C(=O)N(C)C1CCN(C)CC1	2	1
CCc1nnsc1C(=O)N1CCOC(Cc2ccc(OC)cc2)C1 (stereo not given)	4	0
Fc1ccc(-c2csc3ncnc(Sc4nnc(NC5CC5)s4)c23)cc1	3	15
CN(Cc1ccccc1)C1(CNC2CCOCC2)Cc2ccccc2C1	12	-1
CC1(C)S[C@@H]2[C@H](NC(=O)[C@H](NC(=O)N3CCNC3=O)c3ccccc3)C(=O)N2C1C(=O)O (stereo not given in full)	-10&-9	4&-15
COc1cccc(CN(CCc2c[nH]c3ccccc23)Cc2nc(C(=O)NCCN(C)C)co2)c1OC	-3	26
CC(C)NC(=S)NNC(=O)C1CC1	4	3
COc1ccc2nc(-n3nc(C)cc3NC(=O)c3c(F)cccc3F)sc2c1	-9	-15
O=S(=O)(c1ccccc1C(F)(F)F)N1CCC(CO)(Cc2ccccc2Cl)CC1	1&-3	-2&11
CCCCCn1nc(C)c(C=NNc2nc(N)ncc2[N+](=O)[O-])c1C	7	5
C=CCN(CC(=O)N1CCc2sccc2C1c1ccc(Cl)cc1Cl)C(=O)Cc1cccs1 (stereo not given)	-3	-7
NCCNC(=O)c1c(O)c2ccccc2oc1=O	-2	-11
Cn1ccnc1CN1CCN(C(=O)c2nccc3ccccc23)CC1	-3	-6
CC(C)CCC(C)NC(=O)C1CCN(S(=O)(=O)c2ccc(F)c(F)c2)CC1 (stereo not given)	7	5
COc1cc(C)nc(-c2ccccc2OCc2nc(CC3CC3)no2)n1	12	6
COC(=O)C(C)(C)CNC(=O)c1ccn[nH]1	1	-2
CSc1ccc(C=CC(=O)Nc2ccc(N3CCN(C)CC3)cc2)cc1	8	-1
Cc1[nH]c(=O)c(C#N)c2c1CCCC2	14	24
SMILES	NPYLR7 ag	NPYLR7 ag max-min
O=C(NCCSC1Sc2ccccc2NC1=O)c1ccccc1CCc1ccccc1 (stereo not given)	-5	-6
CCOc1ccc(-n2c(C(C)N(CCc3ccccc3)C(=O)c3cccc(F)c3)nc3ccccc3c2=O)cc1 (stereo not given)	22	23
O=C(Nc1ccccc1C(=O)NCCCCCc1nc(-c2cccs2)no1)c1cccs1	3	3
c1ccc(-c2nc3c(o2)-c2ccccc2CC3)cc1	-1	-4
COc1ccc2c(c1)c(CC(=O)O)c(C)n2Cc1ccc(F)cc1	-2	-25
Fc1cccc(CSc2nnc(-c3ccncc3)n2-c2cccc(C(F)(F)F)c2)c1F	9	14
COc1ccc(-n2c(SCC(=O)Nc3ccccc3)nc3c(c2=O)SCC3)cc1OC	-9	-12
COCCCN(Cc1nc2sc(C)c(C)c2c(=O)[nH]1)CC(O)Cc1ccccc1 (stereo not given)	9	13
Cc1ccc(CN(CCc2c[nH]c3ccccc23)C(=O)CN(C(C)C)S(=O)(=O)/C=C/c2ccccc2)cc1	2	14
CCn1c(=NC(=O)c2ccccc2)sc2cc(F)cc(F)c21	5	2
CC(C)C(NC(=O)c1cccc(NC(=O)CC2SC(N3CCCCC3)=NC2=O)c1)c1cccs1 (stereo not given)	-5	-5
CN(Cc1noc2c1CCCC2)C(=O)c1cn[nH]n1	0	0
COc1ccc(-n2c(N)c(C#N)c3nc4ccccc4nc32)c(OC)c1	14&5	8&-6
CC(C)(C)c1ccc(C(=O)N2CCC2(C)C(=O)NS(=O)(=O)c2ccc(Cl)s2)cc1 (stereo not given)	5	5
O=C(CN1CCC2(CC1)Nc1ccccc1S(=O)(=O)N2)N1CC=CCC1	-1	18
COCc1nc(NCCC2COc3ccccc3O2)c2cnn(C)c2n1 (stereo not given)	2	2
CCn1c(CN2CCOCC2)nnc1SCC(=O)c1cn(CC)c2ccccc12	4	2
Cc1ccc(S(=O)(=O)N=C(N)c2ccccc2)cc1	-4	-9
O=C(CSc1nncn1-c1ccccc1F)NCCSc1ccccc1	-3	6
CCNC(=S)N1CCn2cccc2C1c1cccc([N+](=O)[O-])c1 (stereo not given)	1	-1
CC1CCCCN1Cc1csc2c1CCCC2 (stereo not given)	2	-3
CCCC(O)CN(CCOC)Cc1c(-c2ccccc2)nn(C)c1Oc1ccc(OC)cc1 (stereo not given)	7	9
C=CCNc1ccccc1C(=O)N(C)Cc1n[nH]c2c1CCCCC2	24	11
Cc1cccc(C(=O)O)c1O	-14	-18
Cc1oc(C(C)C)cc1C(=O)N(C)Cc1ncc[nH]1	16	11

Individual results from the entries so far:
Result for c1ccc(-c2nc3c(o2)-c2ccccc2CC3)cc1 in NPYLR7 ag max-min: -4
Result for O=C(CSc1nncn1-c1ccccc1F)NCCSc1ccccc1 in NPYLR7 ag max-min: 6

Further structures:
SMILES	NPYLR7 ag	NPYLR7 ag max-min
CC(C)CCc1noc(CS(=O)CC(=O)Nc2ccccc2)n1 (stereo not given)	0	5
O=C(Nn1c(-c2ccccc2)csc1=Nc1cc(F)ccc1F)c1ccccc1OC(F)(F)F	-5	-6
Cc1cccc(C(=O)NCCn2nc(-c3cccnc3)ccc2=O)c1	5	-5
O=C(Nc1ccc(N2CCCCC2)c(C(=O)NCC2CCCO2)c1)c1ccc([N+](=O)[O-])cc1 (stereo not given)	-10	1
Oc1[nH]c2c(Br)cc(Br)cc2c1N=Nc1cccc2cccnc12	-9	-14
Cc1c(S(=O)(=O)CCNC(=O)NC2CCCCC2)c2ccccc2n1C	4	10
CC(C)Cc1nc2sc3c(NCCO)ncnc3c2c2c1COC(C)(C)C2	5	1
C[N+](C)(C)CCCCCCCCCC[N+](C)(C)C	-14&2&0	-19&3&-20
CCC(=O)NC1CCc2cccc(OC)c2C1 (stereo not given)	-6	-11
COCCN(CC(=O)N1CCc2sccc2C1COc1ccc(Cl)cc1)C(=O)c1cccc(OC)c1 (stereo not given)	14	13
O=C(NCC1CCCO1)c1cccnc1N1CCN(C(=O)c2ccc(F)c(F)c2)CC1 (stereo not given)	25	28
CCOc1cc(C=C2SC(=S)N(CC)C2=O)cc(Br)c1OCC	-6	-11
O=C(c1ccc(F)cc1)N(Cc1nccn1Cc1cccc(Cl)c1)C1CC1	8	18
Cc1cccn2c(CNC(C)Cn3cncn3)cnc12 (stereo not given)	27	19
COc1cccc(N2C(=O)/C(=C/c3ccc(-c4ccc(Br)cc4)o3)C=C2c2ccccc2)c1	-2	1
Cc1ccc(C(=O)N2CCN(C(=O)Nc3ccc(C)c(Cl)c3)CC2)cn1	3	2
Cc1cc(O)c(C(c2cccc(Cl)c2)c2c(O)cc(C)[nH]c2=O)c(=O)[nH]1	6	10
CCCN(Cc1cc(OC)cc(OC)c1)Cc1ccc(C(C)(C)O)o1	6	4
CCOC(=O)C1C(=O)C=C(c2cccs2)CC1c1ccc(OC)c(OC)c1 (stereo not given)	-1	2
COc1ccc(CNC(=O)c2sc3ccccc3c2Cl)cc1OC	1	1
CSc1ccc(CN2CCC2(C)C(=O)NCc2ccc(C(F)(F)F)cc2)cc1 (stereo not given)	0	1
Cc1cc(F)ccc1-c1ccc(C(=O)O)cc1F	-1	-8
CC(C)c1ccccc1OCC1CN(NC(=O)c2ccc(F)cc2)C(=O)O1 (stereo not given)	8	3
CC(=O)N1CCN(C(=O)CCNc2cc(C(F)(F)F)ccn2)CC1	-5	-6
COc1ccc(CCN2CCCC(CN(C)C(=O)Nc3cc(C)ccc3C)C2)cc1 (stereo not given)	-3	-4

Quoted from the results shown for reference:
SMILES	NPYLR7 ag	NPYLR7 ag max-min
Cc1ccc(CN(CCc2c[nH]c3ccccc23)C(=O)CN(C(C)C)S(=O)(=O)/C=C/c2ccccc2)cc1	2	14
CCn1c(=NC(=O)c2ccccc2)sc2cc(F)cc(F)c21	5	2
CC(C)C(NC(=O)c1cccc(NC(=O)CC2SC(N3CCCCC3)=NC2=O)c1)c1cccs1 (stereo not given)	-5	-5
CN(Cc1noc2c1CCCC2)C(=O)c1cn[nH]n1	0	0

Back to the main list, repeating the 3 entries before the break.
SMILES	NPYLR7 ag	NPYLR7 ag max-min
CC(C)c1ccccc1OCC1CN(NC(=O)c2ccc(F)cc2)C(=O)O1 (stereo not given)	8	3
CC(=O)N1CCN(C(=O)CCNc2cc(C(F)(F)F)ccn2)CC1	-5	-6
COc1ccc(CCN2CCCC(CN(C)C(=O)Nc3cc(C)ccc3C)C2)cc1 (stereo not given)	-3	-4
COC(=O)Cn1c(=O)c2c(nc3n2CCCN3c2ccc(Oc3ccccc3)cc2)n(C)c1=O	3	4
S=C1NCN(Cc2ccccc2)CN1c1ccccc1	3	2
COCCN1CCC(CN2CCCC3(CCN(C(=O)N(C)C)C3)C2)CC1 (stereo not given)	16&12	11&8
Cc1ccc(-n2nc(-c3ccccc3)c3c2N(CC(=O)NCc2ccco2)C(=O)CSC3c2ccccc2Cl)cc1 (stereo not given)	-1	0
Nc1c(-c2ccc3c(c2)OCCO3)oc2ccc(Cl)cc2c1=O	-6	-6
CCc1nc2c(OCc3cccc(Cl)c3)cccn2c1N(C)C(=O)Nc1ccccc1OC	-16	-22
COc1ccc(N2C(=O)CSC2c2cccc(NC(=O)c3ccc(Cl)cc3Cl)c2)cc1 (stereo not given)	3	4
CS(=O)(=O)NNc1ccc(S(N)(=O)=O)cc1[N+](=O)[O-]	4	3
CCN(C(=S)NC(=O)C1CC1)C1CCCCC1	4	2
COc1ccc(CN2CCc3cc(OC)c(OC)cc3C2CNC(=O)C2CCCC2)cc1 (stereo not given)	-3	2
O=C(NC(c1ccccc1)c1cccnc1)c1csc(=Nc2ccccn2)n1Cc1cccs1 (stereo not given)	7	9
N#CCN(CC#N)C(=O)c1cnn(-c2cccc(Br)c2)c1	-6	-7
CC(=O)N1N=C(c2ccc(C(C)(C)C)cc2)OC1C(=O)NCC(C)(C)CN(C)C (stereo not given)	14	5
CC(=O)Nc1ccc(-c2ccnc3c2CC(C)(C(=O)NCC2CC2)O3)cc1 (stereo not given)	5	8
Cc1nnc(NC(=O)c2cn(CC3CCCO3)cc3c(=O)n(-c4ccccc4)nc2-3)s1 (stereo not given)	7	7
COc1ccc(-n2nnc3c(SC(C)c4ccccc4)ncnc32)cc1 (stereo not given)	15	16
O=C(CCc1ccccc1)NCCn1ncc2c(N3CCOCC3)ncnc21	0	-1
O=C1NC(=S)SC1=Cc1ccc(-c2nc3ccccc3s2)o1	19	29
Clc1ccccc1CC1CN(c2ncccn2)CCO1 (stereo not given)	19	16
COCCN(Cc1cccn1C)C(=O)CN(C(=O)Nc1cccc(C(F)(F)F)c1)C(C)C	-5	1
Cc1ccn2c(NC(=O)CC(C)C)c(-c3ccc(Cl)cc3)nc2c1	-5	3
O=C(Cc1n[nH]c(=S)n1Cc1ccccc1)Nc1cccc(Br)c1	-2	-3
Nc1ncnc(N/N=C\c2ccccc2Cl)c1[N+](=O)[O-]	-4	-8
Cc1nc(-c2cccc(-n3ccnc3C3CCOC(C)(C)C3)c2)n[nH]1 (stereo not given)	14	5
CCn1ccc(C(=O)N2CCCC(CCc3ccccc3C(F)(F)F)C2)n1 (stereo not given)	5	2
SMILES	NPYLR7 ag	NPYLR7 ag max-min
CCC(C)N(Cc1ccccc1F)C(=O)c1cc(NC(C)=O)cc(NC(C)=O)c1 (stereo not given)	3	3
CC(C)N(CC(=O)N(CCc1c[nH]c2ccccc12)Cc1ccc(Cl)c(Cl)c1)C(=O)c1ccccc1Cl	20	22
CC1(NC(=S)Nc2ccc(O)cc2)CCS(=O)(=O)C1 (stereo not given)	2	0
Cc1c(C(=O)NCCC#N)cnc2c(-c3cccc(C(F)(F)F)c3)cnn12	4	-1
CC(NCc1ccc(N2CCOCC2)c(F)c1)c1cccnc1 (stereo not given)	5	2
O=C(c1ccc(N2CCCC2)cc1)N1CCCC(O)(CO)CC1 (stereo not given)	14	11
C=CCOC(=O)C1=C(C)N=C(SCC(=O)Nc2nccs2)C(C#N)C1c1ccc(O)c(OC)c1 (stereo not given)	-8	-11
Cn1nnnc1Sc1nc([N+](=O)[O-])nn1C	-5	-4
CCOC(=O)C1(Cc2cccc(OC)c2)CCCN(S(=O)(=O)Cc2ccccc2)C1 (stereo not given)	5&-10	-1&-14
CC(Cn1ccc2ccccc21)NCc1nc(-c2ccco2)no1 (stereo not given)	11	7
O=C1C[C@H]2CC[C@@H](CN1)N2C(=O)c1ccccc1N1CCC(=O)NC1=O	-7	-8
CCOC(=O)c1sc(NC(=O)c2ccc(S(=O)(=O)N(C)C)cc2)c(C(=O)OCC)c1C	-1	-3
Cc1cc(NC(=O)c2ccc3c(c2)OCO3)n(-c2ncnc3c2cnn3-c2ccccc2)n1	12	9
CN1CCN(S(=O)(=O)c2ccc(Oc3cc(Cl)c(Cl)cc3Cl)nc2)CC1	7	7
COC(=O)CCCNC(=O)c1cn(Cc2ccc(OC)cc2)nn1	-9	-15
Cc1cc(OCC2CN(C(=O)c3n[nH]c4ccccc34)CCO2)ccc1Cl (stereo not given)	26	21

Fetched one by one from above:
SMILES	NPYLR7 ag	NPYLR7 ag max-min
CC1(NC(=S)Nc2ccc(O)cc2)CCS(=O)(=O)C1 (stereo not given)	2	0
Cc1cc(NC(=O)c2ccc3c(c2)OCO3)n(-c2ncnc3c2cnn3-c2ccccc2)n1	12	9
CCC(C)N(Cc1ccccc1F)C(=O)c1cc(NC(C)=O)cc(NC(C)=O)c1 (stereo not given)	3	3
CC(NCc1ccc(N2CCOCC2)c(F)c1)c1cccnc1 (stereo not given)	5	2
O=C1C[C@H]2CC[C@@H](CN1)N2C(=O)c1ccccc1N1CCC(=O)NC1=O	-7	-8
Cc1c(C(=O)NCCC#N)cnc2c(-c3cccc(C(F)(F)F)c3)cnn12	4	-1

This is a subset; count on the stated rates, not on these rows.
